Screens deposited in PubChem by National Center for Advancing Translational Sciences (NCATS).
15-hLO inh: 15-hLO (ALOX15) enzyme inhibition | P16050 | purified 15hLO-1, xylenol orange hydroperoxide absorbance | Potency, µM (series often up to 57.1 µM), inactives show at the highest dose activity change, negative = inhibition, usual class: inhibitors | actives 1.4% (n = 74,000) | AID 887; further: potency means the concentration at half of the fitted maximal effect; on the % scale 0 is the no-effect control and ±100 the full control effect; nearly all actives have a fitted effect of over 55% in size
Target sequence (P16050 whole entry, looked up): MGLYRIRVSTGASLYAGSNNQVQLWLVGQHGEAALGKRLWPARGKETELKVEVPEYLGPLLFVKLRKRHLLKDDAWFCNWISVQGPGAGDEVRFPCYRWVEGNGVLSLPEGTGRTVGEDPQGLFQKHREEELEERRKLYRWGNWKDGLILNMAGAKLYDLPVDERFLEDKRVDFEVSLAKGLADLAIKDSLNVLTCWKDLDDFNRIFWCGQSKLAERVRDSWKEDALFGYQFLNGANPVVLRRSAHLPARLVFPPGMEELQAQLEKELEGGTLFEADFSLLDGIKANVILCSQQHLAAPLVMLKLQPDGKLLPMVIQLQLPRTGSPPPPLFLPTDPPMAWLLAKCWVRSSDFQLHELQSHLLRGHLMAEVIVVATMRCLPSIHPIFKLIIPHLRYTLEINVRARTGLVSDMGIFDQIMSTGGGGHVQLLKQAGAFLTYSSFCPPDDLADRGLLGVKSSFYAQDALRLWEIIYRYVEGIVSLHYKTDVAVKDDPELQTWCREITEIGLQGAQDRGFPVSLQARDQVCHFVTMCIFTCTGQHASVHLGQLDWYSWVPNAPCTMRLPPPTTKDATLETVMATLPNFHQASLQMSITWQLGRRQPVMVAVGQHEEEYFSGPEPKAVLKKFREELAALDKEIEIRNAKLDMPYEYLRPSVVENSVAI
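Purified human 15hLO-1 (40 nM) in 25 mM Hepes pH 7.5, 0.01% Triton X-100, preincubated 15 min RT with compound, then 50 uM arachidonic acid for 6 min. Hydroperoxide read by ferrous/xylenol orange, 30 min; 573/405 nm absorbance ratio gave progress.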
HADH2 inh: inhibitors of human HADH2 dehydrogenase | Q99714 | recombinant HADH2, NADH fluorescence, beta-hydroxybutyryl-CoA | Potency, µM (doses to about 57.1 µM), without a hit: top-dose activity change, negative = inhibition, usual class: inhibitors | actives 3.4% (n = 73,000) | AID 886; further: potency means the concentration at half of the fitted maximal effect; on the % scale 0 is the no-effect control and ±100 the full control effect; nearly all actives have a fitted effect of over 60% in size; many of its hits are not listed in these tables
Target sequence (Q99714 whole entry, looked up, one chain of several): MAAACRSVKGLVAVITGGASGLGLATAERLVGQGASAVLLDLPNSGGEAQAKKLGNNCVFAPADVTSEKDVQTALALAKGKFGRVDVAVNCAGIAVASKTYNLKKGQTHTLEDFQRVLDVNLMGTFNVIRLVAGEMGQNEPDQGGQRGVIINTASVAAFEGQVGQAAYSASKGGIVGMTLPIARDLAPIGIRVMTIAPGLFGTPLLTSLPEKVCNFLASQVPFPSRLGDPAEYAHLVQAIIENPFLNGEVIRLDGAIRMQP
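20 nM HADH2 + cpd, 15 min RT; add 1 mM NAD+/90 uM beta-hydroxybutyryl-CoA; kinetic fluorescence 360/450 nm, 4 min. Tris-HCl pH 9.0, 0.01% Tween-20.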
CRE-bla Fsk: alters forskolin-stimulated CRE reporter signaling in CHO cells. CHO CRE-bla reporter (cAMP response element driving beta-lactamase), forskolin EC10, beta-lactamase ratio. Potency, µM (highest dose often 38.2 µM), without a hit: at the highest dose activity change, negative = inhibition, usual class: activators. actives 2.5% (n = 71,000). AID 662; active means well fitted activation curve with a large enough effect in the signal ratio, with a control signal flat, not every such curve was filed as active; inconclusive means small, poorly fitted or top-dose-only effect, or effect the other way, or a change in a side signal; the % refers to the signal ratio; further: potency means the concentration at half of the fitted maximal effect; % of control where 0% means no effect
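Beta-lactamase reporter under a cAMP responsive element in CHO cells; compounds tested in titration series against EC10 NKH 477, 3 h at 37 °C. Read-out: CCF4 FRET ratio 460nm/530nm (excitation 405nm) giving %Activity, fitted to AC50.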
HBB splicing: modulators of hemoglobin beta chain splicing; HBB splicing reporter cell assay, activation; EGFP reporter with mutant IVS2-654 intron; response scale: normalised to 500 nM splice-correcting PNA; Potency, µM (top dose mostly 46.1 µM), inactives show at the highest dose activation, hits mostly activators; actives 0.06% (n = 65,000); further: potency means the concentration at half of the fitted maximal effect; 0% is about no effect
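HeLa cells stably expressing EGFP interrupted by mutant beta-globin intron 2 (IVS2-654), 500/well in 2% FCS. Treated with compound for 2 days at 37C. Splicing correction scored as total well GFP intensity (488 nm excitation, 500-520 nm emission); 500 nM antisense PNA served as control.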
Epigenetic mod: epigenetic GFP locus derepression in mouse cells | mouse C127i GFP locus derepression, cytometry, 30 h | Potency, µM (highest dose often 46.1 µM), for inactives: top-dose GFP derepression (activation) | actives 0.09% (n = 68,000) | AID 597; further: % of control where 0% means no effect
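Locus derepression in mouse mammary C127i cells whose integrated CMV-GFP reporter is normally silent; GFP expression after 30 h compound treatment was quantified by counting fluorescent cells.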
UbGFP stabilizer: ubiquitin-GFP accumulation via proteasome inhibition; Ubiquitin-GFP reporter cells, proteasome inhibition, GFP fluorescence; response scale: untreated = 0%, 10 µM MG-132 = 100%; Potency, µM (titrated, usually from 45.9 µM), for inactives: top-dose activation (GFP accumulation), usual class: activators; 67,000 tested, under 10 active; AID 526; active means well fitted activation curve with a large enough effect, not every such curve was filed as active; inconclusive means small, poorly fitted or top-dose-only effect, or another doubt; inactive means no such curve, though single readings can be large or run the other way; further: potency means the concentration at half of the fitted maximal effect
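Proteasome blockade was scored as a rise in GFP-expressing U2OS cells carrying a ubiquitin(G76V)-GFP construct, imaged after 4 hr compound treatment at 37 °C across a 46 uM–2.9 nM series.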
BRCT PPI green: inhibitors of human BRCA1 BRCT-phosphoprotein interaction (green fluorophore); BRCA1 BRCT-phosphopeptide binding, green fluorescence polarization; Potency, µM (top dose mostly 76.9 µM), without a hit: top-dose activity change, negative = inhibition, usual class: inhibitors; actives 0.05% (n = 75,000);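 further: potency means the concentration at half of the fitted maximal effect; plate controls were peptide without protein for full effect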
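Compounds were incubated for 12 min at room temperature with a complex of 100 nM fluorescein-tagged pBACH1 decapeptide and 250 nM His-tagged BRCT protein. Buffer was phosphate pH 7.3 with EDTA, DTT and Tween 20. Disruption of binding lowers the polarization signal.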
BRCT PPI red: BRCT-phosphoprotein interaction inhibition (red fluorophore); P38398; BRCT-phosphopeptide binding, red fluorescence polarization; Potency, µM (titrated, usually from 76.9 µM), for inactives: at the highest dose activity change, negative = inhibition, most hits filed as inhibitors; actives 0.03% (n = 75,000); AID 892; further: on the % scale 0 is the no-effect control and ±100 the full control effect
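Rhodamine-labelled pBACH1 10-mer (100 nM) bound to BRCT domain (100 nM) at pH 7.3; compounds incubated 12 min room temperature, polarization read. Free peptide defines full inhibition; unlabelled decapeptide titrated as control.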
Pol III holo inh: blocks replication by bacterial DNA polymerase III holoenzyme | reconstituted DNA polymerase III holoenzyme replication, biochemical | actives 0.25% (n = 71,000) | Potency, µM (titrated, usually from 57.1 µM), for the others: at the highest dose activity change, negative = inhibition | AID 603; further: potency means the concentration at half of the fitted maximal effect; on the % scale 0 is the no-effect control and ±100 the full control effect
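Reconstituted *E. coli* holoenzyme (0.35 nM Pol III, 1 nM beta, 154 nM SSB, 2 nM primase) was preincubated with compound for 15 min at RT. Synthesis on 1.4 nM ssM13Gori ran 35 min, then was stopped with PicoGreen/EDTA and read as dsDNA fluorescence.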
USP2a inhib: blocks human ubiquitin-specific protease USP2a; USP2a enzymatic assay, qHTS inhibition; Potency, µM (doses to about 38.3 µM), without a hit: top-dose activity change, negative = inhibition, actives largely listed as inhibitors; actives 0.1% (n = 60,000); AID 927;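 further: potency means the concentration at half of the fitted maximal effect; nearly all actives have a fitted effect of over 60% in size; plate controls were DMSO for no effect and NEM full inhibition control for full effect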
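Coupled readout: USP2-cleaved Ub-PLA2 (20nM final) turns over NBD C6-HPC (20uM final), Ex 460nm/Em 535nm after 2.5 h, time-zero read flagging artifacts. Enzyme (20nM final, pH 8.0 Tris) given 30 min RT with compound first; NEM defines full inhibition.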
* hit, by the source's call; ? = inconclusive; · = no result given; [ ] = another dose, or the depositor's remark. Unless noted, the call rests on the fitted dose curve; in most records, active means well fitted curve in the direction sought with a large enough effect; inconclusive means small, poorly fitted or top-dose-only effect, or another doubt; inactive means no such curve, though single readings can be large; an effect the other way counts as inactive or inconclusive. This is a subset. The share of hits here may be higher or lower than overall.

no.	Molecule	15-hLO inh	HADH2 inh	CRE-bla Fsk	HBB splicing	Epigenetic mod	UbGFP stabilizer	BRCT PPI green	BRCT PPI red	Pol III holo inh	USP2a inhib
1	Cc1c(NC(=O)c2cc(-c3ccc4c(c3)OCO4)on2)c(=O)n(-c2ccccc2)n1C	0%	-4%	6%	-0.2%	0%	5%	-3.4%	-1.6%	-5%	3%
2	Cc1noc(C)c1S(=O)(=O)N(CCc1ccccc1)Cc1ccccc1	-4%	-2%	5%	-1.1%	-1%	0%	3.2%	-1.3%	2%	-3%
3	CCCc1nc2ccccc2n2cc3c(=O)n(C)c(=O)n(C)c3c12	5%	-4%	5µM*	-1.4%	0%	11%	-1.6%	0.0%	-2%	-5%
4	N#Cc1cnc(SCC(=O)c2ccccc2)nc1N	?	?	?	-4.7%	0%	-2%	14%	-5.6%	0%	36%[activator]
5	CCOC(=O)NCC(C)(C)CNC(=O)OCC	-4%	5%	-3%	0.0%	?	3%	-0.6%	1.6%	-3%	-6%
6	O=C(O)CCC(=O)c1ccc(Cl)cc1	3%[11.4 µM]	7%[11.4 µM]	-9%[7.6 µM]	-0.5%[9.22 µM]	4%[9.22 µM]	-3%[9.17 µM]	-1.8%[15.4 µM]	-0.3%[15.4 µM]	-7%[11.4 µM]	·
7	Cc1ccc(Nc2nc(N)nc(CN3CCN(c4ccccc4F)CC3)n2)cc1	3%	21%	-28%	-2.9%[57.5 µM]	-1%	-2%	3.4%	-0.6%	13%	39%[activator]
8	Cc1cccc(OCCCC(=O)Nc2ccc3c(c2)OCO3)c1	0%[11.4 µM]	2%[11.4 µM]	?	-6.3%[0.0738 µM]	0%	17%[9.17 µM]	-3.0%	0.6%	6%[11.4 µM]	16%[7.66 µM]
9	Cc1cc(N2CCN(C(=O)c3ccco3)CC2)n2nc(C)nc2n1	1%	1%	12%	0.9%	-3%	6%	-2.0%	1.2%	-2%	·
10	Cc1ncoc1C(=O)Nc1nccs1	6%	-3%	4%	0.0%[1.84 µM]	-2%	14%	-4.0%	-2.6%	-2%	-3%
11	CCCCn1nnnc1NCc1ccc(OC)c(OC)c1	-10%	-1%	-2%	-1.0%	4%	-4%	-0.7%	0.3%	-2%	6%
12	Cc1cc(NC(=O)CSc2ccc3nnc(-c4cccs4)n3n2)no1	5%	-16%	10µM*	0.1%	·	-4%	2.4%	3.8%	-3%	·
13	c1ccc2c(c1)nnn2CN1CCOCC1	0%[11.4 µM]	5%[11.4 µM]	1%[7.6 µM]	0.0%[9.22 µM]	7%[9.22 µM]	3%[9.17 µM]	1.1%[15.4 µM]	-0.9%[15.4 µM]	3%[11.4 µM]	·
14	CCOC(=O)c1c(NC(=O)c2nn(CC)cc2Br)sc(C)c1C	-25%	-190%	3.2µM*	0.0%	5%	-1%	0.1%	0.2%	0%	13%
15	CCCn1c(=O)c2ccccc2n2c(SCc3nc4ccccc4s3)nnc12	3%	4%	?	0.0%	0%	-3%	8.9%	4.0%	-3%	37%[activator]
16	CC(Sc1nnnn1C)C(=O)Nc1ccc(Oc2ccccc2)cc1 (stereo not given)	-1%	-4%	-13%	5.4%	2%	9%	1.6%	0.1%	-3%	-7%
17	COC(=O)CCCC[C@H]1SC[C@H]2NC(=O)N[C@]21O	11%	-5%	0%	0.0%	-2%	-5%	1.0%	0.2%	2%	-5%
18	Clc1ccc(Cl)c(SCCCN2CCNCC2)c1	2%[11.4 µM]	11%[11.4 µM]	5%[7.6 µM]	0.2%[9.22 µM]	-2%[9.22 µM]	5%[9.17 µM]	0.3%[15.4 µM]	-0.1%[15.4 µM]	-13%[11.4 µM]	·
19	COc1cccc(-c2nnc(NC(=O)c3ccc(S(=O)(=O)N4CCOCC4)cc3)o2)c1	41%[activator]	-2%	-17%	-0.2%	-1%	-10%	0.0%	0.0%	-12%	36%[activator]
20	CCOc1ccc(/C(O)=C2/C(=O)C(=O)N(CCCn3ccnc3)C2c2cccs2)cc1Cl (stereo not given)	26%	-12%	1%	0.3%	0%	2%	-1.2%	0.4%	0%	35%[activator]
21	CCOc1ccc(NC(=O)CSc2nnc(-c3ccccn3)n2N)cc1	13%	7%	?	2.5%[1.84 µM]	-2%	-3%	0.5%	-1.3%	1%	23%
22	Cc1cccc2cc3c(NC(=O)CC(C)C)nn(C)c3nc12	10%	18%	10µM*	3.5%[1.84 µM]	0%	-4%	0.5%	0.8%	-2%	5%
23	Cc1ccc(-c2nnc3ccc(SCC(=O)Nc4cc(C)on4)nn23)cc1	6%	?	?	-0.2%	0%	-9%	-0.2%	-5.3%	-1%	16%
24	CCCC(=O)Nc1nnc(-c2cccc(OCC)c2)s1	-4%	0%	6%	4.0%	8%	10%	-3.9%	1.3%	-6%	10%
25	C[C@@H]1c2ccccc2CN1CC1=NCCN1	-23%[25.6 µM]	1%	-12%	·	2%	-4%	-3.7%	-5.7%	-4%	·
26	CCCn1c(=O)c2ccccc2n2c(SCC(=O)c3ccccc3)nnc12	-11%	-11%	9%	1.7%[57.5 µM]	-1%	2%	1.9%	-0.7%	-1%	40%[activator]
27	FC(F)(F)c1nnc2sc(-c3ccccn3)nn12	6%	3%	4%	-2.0%[57.5 µM]	-2%	5%	-0.9%	-0.8%	-3%	1%
28	CCOCCCNC(=O)NC12CC3CC(CC(C3)C1)C2	6%	0%	?	5.7%	-3%	0%	-0.6%	1.4%	0%	5%
29	COc1cccc(CNC(=O)C2CCN(S(=O)(=O)c3ccccc3)CC2)c1	-6%	5%	?	-1.5%	2%	2%	-1.7%	-1.0%	3%	4%
30	CC(C)C(NC(=O)OCc1ccccc1)C(=O)OCC(=O)NCc1ccco1 (stereo not given)	-13%	11%	?	-1.2%	0%	-2%	-1.4%	0.6%	-7%	22%
31	O=C(CCC1CCCCC1)Nc1c[nH]c(=O)[nH]c1=O	0%	10%	17%	-1.4%	-1%	1%	-1.9%	-1.6%	5%	-2%
32	COCCn1c(=O)[nH]c2cc(C(=O)NCCN3CCN(c4ccccc4F)CC3)ccc2c1=O	11%	?	-1%	-0.2%	-1%	-8%	-0.8%	-0.2%	-2%	21%
33	C/C=C/c1ccc(Oc2nnnn2-c2ccc(C(=O)O)cc2)c(OC)c1	-11%	-20%	-9%	-0.6%	0%	7%	1.3%	0.2%	-2%	8%
34	COc1ccc(NC(=O)CSc2nnc(-c3ccccn3)n2N)c(OC)c1	11%	25%	12%	2.4%[1.84 µM]	0%	-1%	0.0%	-1.1%	-4%	5%
35	CCn1nc(NC(=O)c2ccccn2)c2cc3cccc(C)c3nc21	0%	-16%	?	0.4%[57.5 µM]	0%	-3%	0.7%	-0.3%	1%	7%
36	C=CCOc1ccccc1CN1CCSCC1	10%[11.4 µM]	4%[11.4 µM]	2%[7.6 µM]	-0.9%[0.0738 µM]	-2%	-7%[9.17 µM]	-0.3%	-0.7%	4%[11.4 µM]	-4%[7.66 µM]
37	CCCCn1nnnc1NCc1cccnc1	6%	-6%	-1%	1.9%	-2%	13%	1.2%	-0.3%	-2%	-9%
38	O=C1CC(c2ccccc2)n2nc(NC(=O)c3ccccn3)nc2N1 (stereo not given)	34%[activator]	-3%	-12%	6.0%	-3%	-1%	-2.5%	0.8%	-9%	7%
39	COC(=O)c1ccc(NC(=O)C2CCN(S(C)(=O)=O)CC2)cc1	2%	6%	0%	·	0%	2%	-2.5%	1.9%	-6%	-6%
40	CC(=O)c1n[nH]nc1NC(=O)c1ccccc1	-6%	2%	?	0.5%	4%	-9%	4.6%	-1.4%	-10%	-9%
